Rango complex inh: prevents formation of the Rango-importin beta complex; Q14974; Rango CFP/YFP FRET sensor + importin beta, 45 min; Potency, µM (titrated, usually from 92.2 µM), inactives show at the top dose inhibition of complex formation; 340,000 tested, 0.031% active; AID 540263; active = rising FRET ratio curve, often small or poorly fitted; inconclusive = mostly compound fluorescence or quenching in the first reads; inactive = flat curves in all reads;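 further: potency means the concentration at half of the fitted maximal effect; 0% = DMSO wells and 100% = buffer wells lacking importin beta; nearly all actives have a fitted effect of over 15% in size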
Target sequence (Q14974 whole entry, looked up): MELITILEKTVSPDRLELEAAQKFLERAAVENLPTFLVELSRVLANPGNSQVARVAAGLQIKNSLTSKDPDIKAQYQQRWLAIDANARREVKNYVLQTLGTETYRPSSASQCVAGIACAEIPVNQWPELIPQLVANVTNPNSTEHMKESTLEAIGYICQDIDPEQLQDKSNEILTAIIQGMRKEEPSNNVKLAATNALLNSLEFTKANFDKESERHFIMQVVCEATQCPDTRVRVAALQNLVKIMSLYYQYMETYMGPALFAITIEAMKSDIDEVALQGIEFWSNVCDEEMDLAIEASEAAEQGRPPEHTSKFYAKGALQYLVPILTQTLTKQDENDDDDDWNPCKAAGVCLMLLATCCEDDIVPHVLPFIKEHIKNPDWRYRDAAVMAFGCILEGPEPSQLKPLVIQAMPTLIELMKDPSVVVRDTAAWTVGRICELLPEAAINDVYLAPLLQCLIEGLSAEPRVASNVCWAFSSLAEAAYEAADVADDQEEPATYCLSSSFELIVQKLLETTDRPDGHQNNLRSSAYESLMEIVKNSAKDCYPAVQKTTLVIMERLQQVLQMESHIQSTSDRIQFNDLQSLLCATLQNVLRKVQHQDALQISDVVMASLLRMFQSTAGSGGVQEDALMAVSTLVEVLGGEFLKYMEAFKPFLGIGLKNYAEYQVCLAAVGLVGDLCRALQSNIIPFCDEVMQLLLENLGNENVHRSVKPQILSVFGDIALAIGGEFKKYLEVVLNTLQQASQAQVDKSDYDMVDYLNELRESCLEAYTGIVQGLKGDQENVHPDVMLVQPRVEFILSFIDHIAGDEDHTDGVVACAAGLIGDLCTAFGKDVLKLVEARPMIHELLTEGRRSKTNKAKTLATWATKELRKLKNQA
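Inhibition scored from the CFP 486 nm/YFP 530 nm FRET ratio 45 min after adding 0.125 microM importin beta to 50 nM Rango biosensor preincubated 5 min with compound (room temperature, PBS with DTT, Tween-20, BSA). No-importin wells as positive control.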
miR-21 FLuc: miR-21 reporter, rising signal | HeLa miR-21 FLuc reporter, luciferase, 48 h | Potency, µM (top dose mostly 38.3 µM), for the others: at the highest dose reporter change, positive = more light | 340,000 tested, under 10 active | AID 2288; active = well fitted rising curve with a large enough effect; inconclusive = small, poorly fitted or top-dose-only effect; inactive = no such curve, though single readings can be large or run the other way;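 further: % of control where 0% means no effect; miR-21 action dims this reporter so a rising signal means less miR-21 action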
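HeLa cells endogenously expressing miR-21, stably carrying CMV-driven firefly luciferase with a downstream miR-21 binding site, 2000 cells/well. Titrations up to approximately 40 uM, 48 hours; luciferase luminescence read.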
GLA inh pH 4.5: alpha-galactosidase A (human) inhibition, pH 4.5. P06280. purified enzyme, 4-MU-alpha-Gal fluorescence, pH 4.5. activity change, negative = inhibition, % at 105 µM. 230,000 tested, under 10 active; inconclusive = small, poorly fitted or top-dose-only inhibition, or a rising curve; inactive = flat fitted curve, though single readings scatter; no compound was filed as active;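 further: 0% = full activity with enzyme and -100% = basal without enzyme; dose as in the result columns while the protocol names 77 µM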
Rango release inh: inhibition of RanGTP-driven Rango-importin beta dissociation; O95149+P62826; Biochemical FRET Rango-importin beta, RanGTP-induced dissociation; Potency, µM (doses to about 46.1 µM), for the others: at the top dose activity change, negative = inhibition; 340,000 tested, 0.071% active; AID 540253; active means falling FRET ratio curve, often poorly fitted, with flat reads before Ran was added; inconclusive means other falling curves, or compound fluorescence or quenching; inactive means flat or rising ratio curve;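 further: potency means the concentration at half of the fitted maximal effect; % of control where 0% means no effect; nearly all actives have a fitted effect of over 45% in size; -100% = wells without RanGTP and RCC1; the record marks most hits as doubtful in a second field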
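FRET read at 45 min, room temperature: inhibitors block the CFP/YFP signal rise when RanGTP (0.6 uM Ran, 2 mM GTP, 0.2 uM RCC1) frees Rango (0.1 uM) from importin beta (0.25 uM). Pre-read after 5 min compound exposure flags interference.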
* hit, by the source's call; & = joins results of further samples.

`O=C(c1ccc(CNS(=O)(=O)c2ccc(Br)cc2)cc1)N1CCCCCC1` gave Rango complex inh 0.1%, miR-21 FLuc 11% and Rango release inh -2%.
`COc1ccc(C2=NOC(C(=O)NCCCN3CCOCC3)C2)cc1` (centres undefined) gave Rango complex inh -0.5%, miR-21 FLuc -5%, GLA inh pH 4.5 -6 and Rango release inh 6%.
`CS(=O)(=O)N(CC(=O)NCCSCc1ccccc1)c1ccccc1` gave Rango complex inh 0.6%, miR-21 FLuc 0%, GLA inh pH 4.5 -3 and Rango release inh 18%.
CCOc1ccc(-c2nnn(CC(=O)NCc3ccco3)n2)cc1OCC was read as Rango complex inh 0.9%, miR-21 FLuc -10%, GLA inh pH 4.5 -16 and Rango release inh 7%.
Screening Nc1c(Cl)cc(C2=NCCn3nc4cc([N+](=O)[O-])ccc4c32)cc1Cl returned Rango complex inh 0.6% and Rango release inh -6%.
For CCOc1ncccc1C(=O)Nc1cc(S(=O)(=O)N2CCCCC2)ccc1OC the results were Rango complex inh -2.2% and Rango release inh 0%.
`COC(=O)c1nc(NC(C)=O)n[nH]1` gave miR-21 FLuc 0% and GLA inh pH 4.5 -3.
`NCCCC[C@@H](C(=O)N1CCNCC1)n1cc(CCC(=O)O)nn1` gave Rango complex inh 2.2%, miR-21 FLuc 1%, GLA inh pH 4.5 1 and Rango release inh 4%.
CC(NC(=O)[C@H](C)NC(=O)C1CC(=O)N(c2ccc3c(c2)OCO3)C1)c1ccccc1 (some centres undefined) was read as Rango complex inh 3.2%, miR-21 FLuc 0% and Rango release inh -13%.
`Cc1cccc(OCC(=O)NCC(=O)N/N=C/c2ccc([N+](=O)[O-])cc2)c1` gave Rango complex inh -0.5%, miR-21 FLuc 0%, GLA inh pH 4.5 -11 and Rango release inh -1%.
For C=CCn1c(SCC(=O)Nc2cc(C)on2)nnc1-c1ccccc1F the results were Rango complex inh -3.1% and Rango release inh 5%.
O=c1[nH]nc(-c2cccs2)c2ccccc12 was read as Rango complex inh 3.4%, miR-21 FLuc -12%, GLA inh pH 4.5 5 and Rango release inh -7%.
For COc1ccc(N2CCN(C3CCCCC3NS(=O)(=O)c3ccc(Cl)cc3)CC2)cc1 (centres undefined) the results were Rango complex inh 3.3%, miR-21 FLuc 17% and Rango release inh 3%.
COc1cc(OC)cc(C(=O)Oc2ccc(/C=N/Nc3nc4ccccc4s3)cc2OC)c1 was read as Rango complex inh -1.6%, miR-21 FLuc -56%, GLA inh pH 4.5 -12 and Rango release inh -9%.
`COc1ccc(Nc2ccc([N+](=O)[O-])c3nonc23)c(OC)c1` gave Rango complex inh 3.3%, miR-21 FLuc -6% and Rango release inh 1%.
CCOC(=O)C1=C(C)NC2=C(C(=O)CC(c3cccs3)C2)C1c1cccs1 (centres undefined) was read as Rango complex inh 0.0%, miR-21 FLuc inconclusive, GLA inh pH 4.5 -10 and Rango release inh 0%.
CCOC(=O)c1c(NC(=O)C2CC2)sc(C)c1CC was read as Rango complex inh 6.0%, miR-21 FLuc -3%, GLA inh pH 4.5 12 and Rango release inh -9%.
Cc1ccc(N=C2N=C(N)c3ccccc32)cc1C was read as Rango complex inh 1.6% and Rango release inh -1%.
C=C(Br)Cn1c(CCCC)nc2ccccc21 was read as Rango complex inh -3.1%, miR-21 FLuc 0%, GLA inh pH 4.5 -7 and Rango release inh -4%.
Screening CCc1ccc(NC(=O)C2CC(=O)N(C(C)C)C2)cc1 (centres undefined) returned Rango complex inh -0.9%, miR-21 FLuc -18%, GLA inh pH 4.5 -2 and Rango release inh 1%.

Three entries out of the list, arranged by formula weight, ascending.
CCOC(=O)c1c(NC(=O)C2CC2)sc(C)c1CC was read as Rango complex inh 6.0%, miR-21 FLuc -3%, GLA inh pH 4.5 12 and Rango release inh -9%.
`COc1ccc(C2=NOC(C(=O)NCCCN3CCOCC3)C2)cc1` (centres undefined) gave Rango complex inh -0.5%, miR-21 FLuc -5%, GLA inh pH 4.5 -6 and Rango release inh 6%.
CCOC(=O)C1=C(C)NC2=C(C(=O)CC(c3cccs3)C2)C1c1cccs1 (centres undefined) was read as Rango complex inh 0.0%, miR-21 FLuc inconclusive, GLA inh pH 4.5 -10 and Rango release inh 0%.

The listing picks up with the 5 entries that preceded the break.
CCOC(=O)C1=C(C)NC2=C(C(=O)CC(c3cccs3)C2)C1c1cccs1 (centres undefined) was read as Rango complex inh 0.0%, miR-21 FLuc inconclusive, GLA inh pH 4.5 -10 and Rango release inh 0%.
CCOC(=O)c1c(NC(=O)C2CC2)sc(C)c1CC was read as Rango complex inh 6.0%, miR-21 FLuc -3%, GLA inh pH 4.5 12 and Rango release inh -9%.
Cc1ccc(N=C2N=C(N)c3ccccc32)cc1C was read as Rango complex inh 1.6% and Rango release inh -1%.
C=C(Br)Cn1c(CCCC)nc2ccccc21 was read as Rango complex inh -3.1%, miR-21 FLuc 0%, GLA inh pH 4.5 -7 and Rango release inh -4%.
Screening CCc1ccc(NC(=O)C2CC(=O)N(C(C)C)C2)cc1 (centres undefined) returned Rango complex inh -0.9%, miR-21 FLuc -18%, GLA inh pH 4.5 -2 and Rango release inh 1%.
CCN(CC)c1ccc(NC(=O)CN2CCN(CC(=O)Nc3ccccc3OC)CC2)cc1 was read as Rango complex inh 0.3%, miR-21 FLuc 3%&21% and Rango release inh -22%.
COc1ccc(-c2[nH]ncc2/C=N/NC(=O)c2ccc(Br)cc2)c(OC)c1 was read as Rango complex inh 0.3%, miR-21 FLuc -3%, GLA inh pH 4.5 2 and Rango release inh 12%.
For COP(C)(=O)c1c(C)nn(-c2ccccc2)c1C (centres undefined) the results were Rango complex inh -4.0%, miR-21 FLuc -8%, GLA inh pH 4.5 -22 and Rango release inh -10%.
COc1cccc(NC(=O)CN(C)C(=O)c2cc3c(s2)CCC3)c1 was read as Rango complex inh -2.9% and Rango release inh 8%.
For Cc1ccc(NC(=O)NC2CCN(S(=O)(=O)c3ccc(F)cc3)CC2)cc1 the results were Rango complex inh 5.1%, miR-21 FLuc 8%, GLA inh pH 4.5 -10 and Rango release inh -4%.
`CC1=CC2=NC(=O)/C(=C/c3coc4ccccc4c3=O)C(=N)N2O1` gave Rango complex inh inconclusive, miR-21 FLuc 1%, GLA inh pH 4.5 0 and Rango release inh inconclusive.
`CN(C(=O)c1ccc(NC(=O)Cc2ccc(NC(=O)C3CCN(C(=O)c4ccccc4)CC3)cc2)cc1)C1CC1` gave Rango complex inh -0.4% and Rango release inh -13%.
Screening Cn1c(=O)cc(NCCc2ccccc2)[nH]c1=O returned Rango complex inh -0.5%, miR-21 FLuc 16%, GLA inh pH 4.5 2 and Rango release inh 14%.
For Cc1cc(C(=O)COC(=O)c2ccc(Cl)c(S(N)(=O)=O)c2)c(C)n1CC1CCCO1 (centres undefined) the results were Rango complex inh -0.9% and Rango release inh 0%.
`N#Cc1ccc(NCCc2ccccn2)c([N+](=O)[O-])c1` gave Rango complex inh 0.0%, miR-21 FLuc -33%, GLA inh pH 4.5 -9 and Rango release inh -2%.
COC(=O)Cn1c2ccccc2c2nc(C)sc21 was read as Rango complex inh 0.1%, miR-21 FLuc 1%, GLA inh pH 4.5 -15 and Rango release inh 7%.
`COc1ccc(/C=N/NC(=O)c2cc(C)on2)c2ccccc12` gave Rango complex inh 5.5%, miR-21 FLuc -5%, GLA inh pH 4.5 -4 and Rango release inh -2%.
Screening CCCCN(CCCC)CCCNC(=O)C12CN(Cc3ccccc3)CC1C(c1cccc([N+](=O)[O-])c1)=NO2 (centres undefined) returned Rango complex inh 2.5%, miR-21 FLuc -2%, GLA inh pH 4.5 -25 and Rango release inh -2%.
For COc1cc2ccc3c(CCN(C)C)cc(OC)c(OC)c3c2cc1OC the results were Rango complex inh -1.9%, miR-21 FLuc 0% and Rango release inh 21%.
For O=C(NC1c2ccccc2-c2ccccc21)c1ccco1 the results were Rango complex inh -2.5%, miR-21 FLuc 16%, GLA inh pH 4.5 12 and Rango release inh 4%.
For CC(=O)c1c(C(C)=O)c(C)n(-c2nc(-c3ccccc3)c(C)s2)c1C the results were Rango complex inh 0.7%, miR-21 FLuc 1%, GLA inh pH 4.5 1 and Rango release inh 3%.
For COc1cc(/C=C/C(=O)OCC(=O)Nc2cc(S(=O)(=O)N3CCOCC3)ccc2Cl)cc(OC)c1OC the results were Rango complex inh -0.9% and Rango release inh -2%.
`CCC(NC(=O)NCc1cccnc1)(C(F)(F)F)C(F)(F)F` gave Rango complex inh -0.5%, miR-21 FLuc -7%, GLA inh pH 4.5 1 and Rango release inh 24%.
Cc1ccc(Cn2ccc(NC(=O)c3cc(C)on3)n2)cc1 was read as Rango complex inh -1.4%, miR-21 FLuc -39%, GLA inh pH 4.5 4 and Rango release inh 1%.
For N#C/C(=C\c1cccc(Cl)c1)C(=O)c1ccccc1 the results were Rango complex inh -0.6%, miR-21 FLuc -3%, GLA inh pH 4.5 -6 and Rango release inh -10%.
`CCC(C)NC(=O)c1c(N)n(/N=C/c2cccnc2)c2nc3ccccc3nc12` (centres undefined) gave Rango complex inh inconclusive, miR-21 FLuc -4%, GLA inh pH 4.5 -4 and Rango release inh 3.3µM*.
`CCCNC(=O)C(Cc1cccc(C#N)c1)NC(=O)c1cccc([N+](=O)[O-])c1` (centres undefined) gave Rango complex inh -5.1% and Rango release inh 3%.
Screening O=C(NCCOc1ccccc1)C(=O)c1c[nH]c2ccccc12 returned Rango complex inh 1.2%, miR-21 FLuc -38%, GLA inh pH 4.5 -11 and Rango release inh 11%.
For O=C(CCCN1C(=O)C2CCCCN2C1=O)N1CCN(c2ccc([N+](=O)[O-])cc2)CC1 (centres undefined) the results were Rango complex inh 3.4%, miR-21 FLuc 0%, GLA inh pH 4.5 -6 and Rango release inh -26%.
CCN(CC)c1ccc(NC(=O)C(C)C)cc1 was read as Rango complex inh -3.9%, miR-21 FLuc -28%, GLA inh pH 4.5 8 and Rango release inh -7%.
CCCCCN(C(=O)CCC(=O)OC(C)C(=O)Nc1cccc(C#N)c1)c1c(N)n(CCCC)c(=O)[nH]c1=O (centres undefined) was read as Rango complex inh 3.7% and Rango release inh -26%.
For CC(=O)N1c2ccc(S(=O)(=O)N3CCCC(C(=O)Nc4ccc(F)cc4)C3)cc2CC1C (centres undefined) the results were Rango complex inh 4.5%, miR-21 FLuc 23% and Rango release inh -7%.
`CCOC(=O)c1cc(C)nc(N2CCCCC2)c1C#N` gave Rango complex inh inconclusive, miR-21 FLuc -15%, GLA inh pH 4.5 0 and Rango release inh inconclusive.
Screening Cc1ccc(OCC(=O)NCc2n[nH]c(=O)c3ccccc23)cc1 returned Rango complex inh -1.2% and Rango release inh -5%.
CCn1c(Cn2nnc(-c3ccccc3)n2)nnc1SCC(=O)Nc1ccccc1 was read as Rango complex inh -5.0%, miR-21 FLuc -8%, GLA inh pH 4.5 -2 and Rango release inh 0%.
For Cc1cc(=O)n(CNC(=O)c2ccccc2)c(=S)[nH]1 the results were Rango complex inh 7.8%, miR-21 FLuc -6%, GLA inh pH 4.5 8 and Rango release inh 24%.
COc1ccc(Cn2c(O)cc(=O)[nH]c2=O)cc1 was read as Rango complex inh 0.0%, miR-21 FLuc 0%, GLA inh pH 4.5 2 and Rango release inh -4%.
Screening CCOC(=O)c1sc(NC(=O)c2ccc3nc[nH]c3c2)nc1C returned Rango complex inh -1.2%, miR-21 FLuc -32% and Rango release inh -17%.
COc1ccc(NC(=O)CCCSc2nc(-c3ccco3)cc(C(F)(F)F)n2)cc1OC was read as Rango complex inh -5.4%, miR-21 FLuc 5%&-4%, GLA inh pH 4.5 -5 and Rango release inh -17%.
Cc1cnc(C(=O)OCC(=O)NC2CCCCCC2)cn1 was read as Rango complex inh 6.8%, miR-21 FLuc 0%, GLA inh pH 4.5 1 and Rango release inh 11%.
Screening FC(F)(F)c1nnc2ccc(NCc3cccnc3)nn12 returned Rango complex inh 0.0%, miR-21 FLuc 5%, GLA inh pH 4.5 -23 and Rango release inh 1%.
For O=C(Nc1cc(-c2ccccc2)sc1C(=O)O)c1cccc(F)c1 the results were Rango complex inh 5.9%, miR-21 FLuc 12%&-6% and Rango release inh -10%.
COc1ccc(C(C#N)N2CCCCCC2)cc1OC (centres undefined) was read as Rango complex inh 2.9%, miR-21 FLuc -1%, GLA inh pH 4.5 0 and Rango release inh 6%.
For Cc1noc(C)c1CSc1nc2ccccc2[nH]1 the results were Rango complex inh -5.0%, miR-21 FLuc -6%, GLA inh pH 4.5 -9 and Rango release inh -11%.

High-throughput results (PubChem BioAssay)

An excerpt (hit frequency here may not be typical).
